High-throughput results deposited in PubChem BioAssay by ICCB-Longwood Screening Facility, Harvard Medical School.
Mtb MenB inh – inhibitors of Mycobacterium tuberculosis MenB enzyme. P9WNP5. MenB enzyme assay, absorbance read-out; some hits fall short of the stated cut. inhibition, %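 (about 12 µg/mL by stock and volumes)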. actives 0.43% (n = 100,000);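 active = mean of two replicates above 30%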;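 also: 0% = no compound and 100% = wells with inactive enzyme; the first replicate is given; strong numbers were not always called active; inactives centre near -10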
Polio RdRp inh – inhibitors of poliovirus RNA polymerase binding and polymerization | P03300 | poliovirus polymerase elongation, fluorescence polarization; active compounds read low | % elongation, % (compound at 16.7 µg/mL) | actives 0.66% (n = 150,000); in the data active = % elongation below about 90%; also: some results filed as inactive read as strong as hits
Target sequence (P03300 1749-2209 limits assumed): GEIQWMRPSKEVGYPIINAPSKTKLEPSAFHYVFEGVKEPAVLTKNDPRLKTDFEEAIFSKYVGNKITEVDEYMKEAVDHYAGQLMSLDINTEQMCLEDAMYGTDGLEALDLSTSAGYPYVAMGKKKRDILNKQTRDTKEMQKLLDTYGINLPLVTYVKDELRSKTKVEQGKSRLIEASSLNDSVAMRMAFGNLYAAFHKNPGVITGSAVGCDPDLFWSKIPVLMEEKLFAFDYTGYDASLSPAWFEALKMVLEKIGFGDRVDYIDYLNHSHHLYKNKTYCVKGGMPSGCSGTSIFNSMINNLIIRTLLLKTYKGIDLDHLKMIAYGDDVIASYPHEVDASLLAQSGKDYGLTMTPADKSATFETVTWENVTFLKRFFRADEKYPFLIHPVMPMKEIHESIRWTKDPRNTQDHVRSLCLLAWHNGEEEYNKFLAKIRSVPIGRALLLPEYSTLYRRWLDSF
Mtb MbtI inh – inhibitors of Mycobacterium tuberculosis siderophore enzyme MbtI; purified MbtI enzyme, fluorescence intensity read-out; inhibition, %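 (about 17 µg/mL by stock and volumes)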; actives 0.89% (n = 100,000); AID 493033;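 active = above 50% in both replicates, above 80% if mildly self-fluorescent; inactive = the rest, strongly fluorescent compounds included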;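 also: 0% = mean of negative and 100% = mean of positive controls; one replicate is shown; some compounds called inactive have numbers as strong as hits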
Target sequence (P9WFX0 whole entry, looked up): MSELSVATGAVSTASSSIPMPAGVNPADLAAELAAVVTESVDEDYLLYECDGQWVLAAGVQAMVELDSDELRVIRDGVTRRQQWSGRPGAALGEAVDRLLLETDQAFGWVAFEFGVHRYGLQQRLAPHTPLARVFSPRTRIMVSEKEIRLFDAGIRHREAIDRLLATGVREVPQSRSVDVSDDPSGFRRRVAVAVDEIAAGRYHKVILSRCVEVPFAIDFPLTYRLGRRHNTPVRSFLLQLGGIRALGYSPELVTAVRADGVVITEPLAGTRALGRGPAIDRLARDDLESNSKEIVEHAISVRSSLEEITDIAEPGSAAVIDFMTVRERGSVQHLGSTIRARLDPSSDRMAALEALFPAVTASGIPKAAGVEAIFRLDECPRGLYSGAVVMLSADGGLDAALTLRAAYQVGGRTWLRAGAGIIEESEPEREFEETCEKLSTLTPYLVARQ
Polio RdRp inh intensity – also measured in Polio RdRp inh; calls as there; % elongation; measured here: total intensity read-out; formula for this scale not given here;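 total fluorescence in place of polarization; lower means less elongation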
* = called active by the depositor; . = no result given.

SMILES	Mtb MenB inh	Polio RdRp inh	Polio RdRp inh intensity	Mtb MbtI inh
CC1CC(C)CN(C(=O)COC(=O)Cc2ccc(Cl)cc2)C1 (configuration not stated)	.	101	106	-4
COCCN1Cc2cccc(C(=O)N(CC(=O)NC3CCCCC3)Cc3ccc4c(c3)OCO4)c2C1=O	-51	106	103	-5
Clc1ccc(C(Cn2ccnc2)OCc2csc3c(Cl)cccc23)c(Cl)c1 (configuration not stated)	7	101	102	4
Cc1cc(C(=O)c2cc3cc(Cl)ccc3o2)ccc1Cl	-25	113	119	-4
CCN(Cc1ccccc1)S(=O)(=O)c1ccc2c(c1)oc(=O)n2C	-12	101	103	3
O=C(NCC1CCCO1)c1cn(-c2ccccc2)nc1-c1ccc(Cl)cc1 (configuration not stated)	.	104	106	-17
COc1cc(-c2nnc(SCC(=O)c3ccc(CC(=O)N4CCOCC4)s3)o2)cc(OC)c1OC	-4	101	97	3
O=S(=O)(c1cccs1)N1CCCC2C=CC=CC21 (configuration not stated)	-4	.	.	0
NC1CCN(Cc2cccc(F)c2)CC1	2	102	102	-1
O=C(C(Sc1ccccc1)c1ccc(Br)cc1)N1CCOCC1 (configuration not stated)	.	105	107	-8
CC(=O)OC(OC(C)=O)C12C=CC(O1)C1C(=O)N(c3ccccc3-c3ccccc3)C(=O)C12 (configuration not stated)	-10	98	102	90*
COCCNC(=O)c1ccc(CS(=O)(=O)c2c(Cl)cccc2Cl)o1	-16	101	100	4
CC1CCC(C(C)C)C(N(Cc2ccccc2)C(=O)c2cccs2)C1 (configuration not stated)	5	104	100	-7
NCCc1nc(-c2ccccc2)no1	-2	101	102	2
COc1ccc(-c2coc3cc4oc(=O)c5c(c4cc23)CCCCC5)cc1	-3	102	101	0
O=C(CSc1ncnc2ccccc12)N1N=C2/C(=C/c3ccco3)CCCC2C1c1ccco1 (configuration not stated)	-7	107	112	-4
O=C(COCc1cc(-c2ccco2)on1)N1CCCCC1	-2	101	103	7
COc1cccc(NC(=O)Nc2cn(C)c(=O)c3ccccc23)c1	-14	85*	83*	-29
CCn1nnc(NC(=O)COc2ccccc2)n1	13	104	106	-4
CCCCn1c(SCC(=O)NC(C)(C)C)nnc1-c1ccncc1	-86	105	102	-2

Three successive compounds out of the list so far:
SMILES	Mtb MenB inh	Polio RdRp inh	Polio RdRp inh intensity	Mtb MbtI inh
CC1CC(C)CN(C(=O)COC(=O)Cc2ccc(Cl)cc2)C1 (configuration not stated)	.	101	106	-4
COCCN1Cc2cccc(C(=O)N(CC(=O)NC3CCCCC3)Cc3ccc4c(c3)OCO4)c2C1=O	-51	106	103	-5
Clc1ccc(C(Cn2ccnc2)OCc2csc3c(Cl)cccc23)c(Cl)c1 (configuration not stated)	7	101	102	4

The list goes on.
SMILES	Mtb MenB inh	Polio RdRp inh	Polio RdRp inh intensity	Mtb MbtI inh
CNC(=O)CSc1nnc(-c2ccc3c(c2)OCO3)o1	-16	108	110	92
CNC(=O)c1ccccc1NS(=O)(=O)c1ccc(Br)cc1	.	105	109	-2
Cc1ccc(S(=O)(=O)N2CCN(CC(=O)N=Nc3c(O)[nH]c4c(C)c(C)ccc34)CC2)cc1	-17	99	89	-7
O=C(O)c1cc(Cl)c(Cl)cc1C(=O)O	-14	101	101	-12
CCOC(=O)N1CCN(C(=O)CCc2nc3sc4c(c3c(=O)[nH]2)CCCC4)CC1	-28	101	103	-2
CCOC(=O)c1ccc(NC(=O)CN2C(=O)c3ccccc3C2=O)cc1	0	104	100	-10
COc1cccc2sc(NC(=O)c3ccccc3Cl)nc12	.	103	107	-8
Cc1ccc(S(=O)(=O)C(F)F)cc1S(=O)(=O)C(F)F	-27	103	111	2
Cc1ccc(S(=O)(=O)/C(C#N)=C/c2ccccc2)cc1	-11	101	102	-4
CCc1ccc2c(CNC(CC)CC)cc(=O)oc2c1	-1	104	110	-10
Cc1nc2nc(C)c(CCC(=O)NCCC3=CCCCC3)c(C)n2n1	1	100	108	-2
N#Cc1cc2c(=O)n3ccccc3nc2n(-c2cccc(C(F)(F)F)c2)c1=O	-166	106	108	101
Cc1cc(=O)n2c(n1)sc1ccccc12	2	103	100	5
CCOC(=O)C1CCCCN1Cc1ccco1 (configuration not stated)	-91	103	98	-7
CC1(C)CN=C(Nc2nc3ccccc3s2)S1	-15	99	103	-6
O=c1c(-c2nc3ccccc3[nH]2)coc2ccc(Cl)cc12	-48	49	256	.
COc1cc(C)c(COc2ncnc3ccccc23)cc1OC	11	.	.	28
O=C(CSc1ccc(-c2cccs2)nn1)N1CCc2ccccc21	-4	100	97	-12
COc1cccc(-n2cc(C(=O)N(C)C3CCCCC3)c3ccccc3c2=O)c1	3	103	104	-1
COc1ccc(CNC(=O)CCn2c(=O)[nH]c3ccccc3c2=O)cc1	-13	104	98	5
O=P1(c2ccccc2)C=CC(O)C1 (configuration not stated)	-11	99	106	-33
CCCN(C(=O)CSc1nnc(-c2ccco2)o1)C1=CCCCC1	-5	98	100	11
CC(Cc1ccccc1)NC(=O)Cc1ccc(N(C)C)cc1 (configuration not stated)	-10	100	101	-2
CCOC(=O)COc1ccc2c3c(c(=O)oc2c1C)CCC3	-25	105	102	2
O=C(Nc1nn2cnnc2s1)c1ccncc1	-2	103	101	-4
CCN(C(=O)COc1ccc2ccc(=O)oc2c1)C1CCCCC1	.	99	100	92
CCn1c(=O)c2cc(C(=O)N(C)c3cc(Cl)ccc3C)sc2c2ccccc21	-13	102	97	6
O=C(Nc1cccnc1Cl)C1CSC(c2ccncc2)=N1 (configuration not stated)	18	103	99	5
CC1Cc2ccccc2N1C(=O)COC(=O)/C=C/c1ccco1 (configuration not stated)	.	102	105	-2
CC(C)/C=N/NC(=O)c1cccc(N2CCCC2=O)c1	-44	100	103	-13
CCC(C)NC(=O)NCc1ccccc1F (configuration not stated)	-18	100	102	-9
CN(C)C(CC(=O)Nc1ccc(Nc2ccccc2)cc1)C(=O)O (configuration not stated)	1	95	104	6
O=C(O)CCc1ccc(-c2cccs2)o1	-13	103	105	.
C=CCN(CC=C)C(=O)CN1C(=O)c2ccccc2C1=O	-17	103	105	-15
Cn1cc(/C=C(\C(=O)O)C(C(=O)O)=C2CCCCC2)c2ccccc21	.	100	94	8
CCN(C1CCCCC1)S(=O)(=O)c1cccc(S(=O)(=O)N2CCCC2)c1	-6	103	102	-21
CCc1cc(C(=O)O)no1	-53	105	103	-3
Cc1c(-c2nc3cc(Cl)ccc3n2Cc2ccccc2)cc(C#N)n1C	-27	97	94	39
Cc1ccc(CCC(=O)Nc2ccc(C(C)C)cc2)o1	-41	103	103	-2
CC(C)N(CC(=O)c1cccs1)Cc1ccccc1	-8	98	101	100*

Part of the list above in another layout.
O=C(Nc1cccnc1Cl)C1CSC(c2ccncc2)=N1 (configuration not stated)
- Mtb MenB inh: 18
- Polio RdRp inh: 103
- Polio RdRp inh intensity: 99
- Mtb MbtI inh: 5

CC1Cc2ccccc2N1C(=O)COC(=O)/C=C/c1ccco1 (configuration not stated)
- Mtb MenB inh: .
- Polio RdRp inh: 102
- Polio RdRp inh intensity: 105
- Mtb MbtI inh: -2

(cont.)
SMILES	Mtb MenB inh	Polio RdRp inh	Polio RdRp inh intensity	Mtb MbtI inh
Cc1nn(-c2ccccc2)c(C)c1NC(=S)NC(=O)c1cccs1	-3	101	102	7
COC(CNC(=O)Cn1ncc2ccsc2c1=O)OC	-14	100	103	2
O=C(Nc1ccc2c(c1)N(Cc1ccccc1)C(=O)c1ccccc1S2)NC1CC1	4	101	102	-9
Cc1nc(NN)nc(NCc2ccccc2)n1	-44	102	103	-21
CCN(C1=NS(=O)(=O)c2ccccc21)c1ccccc1	5	100	104	6
Cn1cc(CCC(=O)N2CCC(C(N)=O)CC2)c2ccccc21	-16	102	102	44
CC(C)OC(=O)CSc1nnc(-c2ccc(O)cc2)n1-c1ccccc1	-35	104	102	-14
O=C(CCn1c(=S)[nH]c2ccccc2c1=O)N1CCc2ccccc2C1	-24	101	106	-3
CC(C)CNCC1OCCCCO1	-4	100	102	-6
O=C(CSC1=NCCS1)c1ccc2c(c1)OCCO2	0	98	102	1
CCCN(CC1CC1)C(=S)Nc1ccc(OCC)cc1	-13	106	105	.
NNC(=O)c1sc(-c2ccccc2)cc1N	-13	106	103	8
COC(=O)C(C)Oc1cc2oc(=O)c3c(c2cc1Cl)CCC3 (configuration not stated)	-9	102	102	14
CCOC(=O)c1cc(-c2ccc(OC)c(S(=O)(=O)N3CCCc4ccccc43)c2)on1	-27	101	102	-2
Cc1ccccc1NC(=O)COc1ccc(N2CC(C(N)=O)CC2=O)cc1 (configuration not stated)	-4	100	100	-5
CCCCOC(=O)Nc1ccc(C(N)=O)cc1	-2	99	101	-9
CN1c2ccccc2C(C)(C)C12CCCC(=O)N2 (configuration not stated)	-26	103	105	-7
O=C(CCCc1nc(-c2ccccc2)no1)N1CCOCC1	-22	103	102	-8
Cc1c(C(=O)Nc2cc(-c3cccc(F)c3)no2)sc2nc3n(c(=O)c12)CCCCC3	-21	103	102	-4
Cc1onc(-c2ccccc2)c1NC(=O)Nc1ccc(-n2ccc(C(F)(F)F)n2)cc1	-8	99	95	3

A second format for some results above:
CCCCOC(=O)Nc1ccc(C(N)=O)cc1
  Mtb MenB inh = -2
  Polio RdRp inh = 99
  Polio RdRp inh intensity = 101
  Mtb MbtI inh = -9
CN1c2ccccc2C(C)(C)C12CCCC(=O)N2 (configuration not stated)
  Mtb MenB inh = -26
  Polio RdRp inh = 103
  Polio RdRp inh intensity = 105
  Mtb MbtI inh = -7

Among those listed so far, 2 have a CF3 group.
SMILES	Mtb MenB inh	Polio RdRp inh	Polio RdRp inh intensity	Mtb MbtI inh
N#Cc1cc2c(=O)n3ccccc3nc2n(-c2cccc(C(F)(F)F)c2)c1=O	-166	106	108	101
Cc1onc(-c2ccccc2)c1NC(=O)Nc1ccc(-n2ccc(C(F)(F)F)n2)cc1	-8	99	95	3

Next results follow:
SMILES	Mtb MenB inh	Polio RdRp inh	Polio RdRp inh intensity	Mtb MbtI inh
COc1ccc(SCC(=O)c2cc(C)n(C3CC3)c2C)cc1	-21	107	106	24
CC(C)COc1ccc(C(=O)Nc2ccc(C(=O)NCC3(c4ccccc4)CC3)cc2)cc1	-23	103	106	43
N=C1/C(=C/c2cccn2Cc2ccc(Cl)cc2)C(=O)N=C2SC=CN12	-202	103	108	-51
COc1cc(/C=C/C(=O)N2CCC(c3nc4ccccc4o3)CC2)cc2c1OCCO2	-12	103	112	6
COC(=O)C(C(=O)OC)=C(SC)SC	-15	99	102	43
O=C(OC1CCOC1=O)c1c2c(nc3ccccc13)CCCCC2 (configuration not stated)	2	99	102	1
O=S(=O)(NN1CCOCC1)c1cc(S(=O)(=O)c2ccccc2)cs1	2	107	111	-15
COc1ccc(NC(=O)NCCCN2CCCc3ccccc32)c(OC)c1	-23	101	103	-14
CCN(Cc1ccccc1)C(=O)c1cc2c(s1)-c1ccc(Cl)cc1SC2	-23	99	100	17
Cc1noc2nc(C(F)(F)F)[nH]c(=O)c12	.	101	103	-1
CCOC(=O)C1CCN(C(=O)c2ccc3c(=O)n4nc(Nc5ccccc5OC)sc4nc3c2)CC1	-25	100	97	-7
CC1=C(C(=O)Nc2ccc(C(=O)NCc3cccnc3)cc2)SCCO1	9	104	100	14
N#Cc1ccc(NC(=O)CONC2=NCCCCC2)cc1	8	95	95	4
COc1cccc(C(O)c2nccn2C)c1OC (configuration not stated)	5	103	107	-9
CCC(=O)c1ccc(OCC(=O)NCCCN2CCCC2=O)cc1	-15	101	102	-3
CN(C)P1(=S)OCCCO1	-32	104	102	0
Cc1ccc(S(=O)(=O)N/N=C2/CSCC2NC(=O)c2ccccc2)cc1 (configuration not stated)	-5	102	102	-6
Cc1ccc(C2/C(=C(\O)c3ccc(Br)cc3)C(=O)C(=O)N2CCCN(C)C)cc1 (configuration not stated)	3	98	102	-2
CCCNC(=O)c1cc(-c2cccnc2)nc2ccccc12	2	99	104	10
C=Cn1c(C)c(C(C#N)=C(C#N)C#N)c2c1CCCC2	-13	102	107	28
Cc1cccc(-n2c(Sc3nnnn3-c3ccccc3)nc3ccccc3c2=O)c1C	-33	98	105	8
COC(=O)c1cc2ccc3c(c2oc1=O)CN(c1ccccc1)CO3	-79	103	98	95
O=C(CN1CCC(C(=O)O)CC1)Nc1ccccc1Oc1ccccc1	-24	100	96	-9
CCOC(=O)c1ccc(N2C(=O)Cc3ccccc3C2=O)cc1	.	101	101	-11
